# A1 inh: inhibitors of the anti-apoptotic protein A1, read as caspase activation. MEF A1-2A-BIM cells, Caspase-Glo 3/7 luminescence, 3 h; percent of clofoctol response, vehicle zero. caspase activation, % (concentration not given with the values). actives 0.066% (n = 330,000);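 active = over half of replicate activation scores above 10%, or exactly half above 10 with the replicate mean above 10; inconclusive = replicate mean below 10 yet half the replicates above 10; inactive = over half of replicates below 10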;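 also: wells of about 30 µL received 50 nL stock; many hits fall short of the cut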
# Vif A3G: HIV-1 Vif–A3G interaction blockers – biochemical, TR-FRET, GST-Vif 1-94, biotin-A3G peptide, dose response retest, primary screen (AID 1117319). TR-FRET GST-Vif / biotin-A3G peptide binding; higher % means a stronger effect; test concentration not given here; strong numbers were not always called active. one-dose inhibition, %; IC50 in µM for titrated hits. actives 0.57% (n = 260,000);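 active = above the screen mean plus three standard deviations and confirmed in dose response; inconclusive = results disagree or hit not tested in dose response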;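 also: Vif residues 1-94 fused to GST binding biotinylated APOBEC3G peptide 110-148; 0% = full assay without inhibitor and 100% = GST in place of GST-Vif; retest series ran down from 100 µM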
# E coli growth: blocks Escherichia coli growth; OD600, 23 h; hits give low values; OD600 absorbance (no concentration beside the values); actives 0.21% (n = 330,000); AID 1053175;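 active = OD600 absorbance below the run mean of sample wells minus 3.6 SD, in any replicate, cut at about 0.56 in these data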;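 also: stock transfer was 300 nL into about 60 µL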
# UCH37 inh: human UCH37 deubiquitinating enzyme inhibition | Q9Y5K5 | purified proteasome/UCH37, Ub-AMC cleavage fluorescence | inhibition, % (no concentration beside the values) | actives 0.33% (n = 330,000);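 active = mean of two replicates above 20%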;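 also: 0% = compound-free wells with enzyme and 100% = wells lacking proteasome; stock transfer was 100 nL into about 20 µL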
#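 assay system = human UCH37 enzyme supplied as purified proteasome complex | amount = proteasome at 0.15 nM in the dispensed enzyme solution | schedule = 30 min compound-proteasome preincubation then 25 min substrate reaction, room temperature | measured by = fluorescence, ex 355 nm, em 460 nm | benchmarks = no-proteasome wells (full inhibition) and compound-free wells (no inhibition)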
# LANA-H2B inh: blocks KSHV LANA binding to histone H2A/H2B | Q9QR71 | cell-free LANA-H2A/H2B peptide, fluorescence polarization | inhibition, % (no concentration beside the values) | actives 0.6% (n = 320,000) | AID 2629; in the data active = inhibition mostly above about 10%, no sharp cut-off; inactive = mostly below about 6.7%;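 also: stock transfer was 7.5 nL into about 10 µL; 0% = median of vehicle wells and 100% = median of positive control wells; one replicate is shown; the record names a cut of 25% in any replicate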
# Target sequence (Q9QR71 whole entry, looked up): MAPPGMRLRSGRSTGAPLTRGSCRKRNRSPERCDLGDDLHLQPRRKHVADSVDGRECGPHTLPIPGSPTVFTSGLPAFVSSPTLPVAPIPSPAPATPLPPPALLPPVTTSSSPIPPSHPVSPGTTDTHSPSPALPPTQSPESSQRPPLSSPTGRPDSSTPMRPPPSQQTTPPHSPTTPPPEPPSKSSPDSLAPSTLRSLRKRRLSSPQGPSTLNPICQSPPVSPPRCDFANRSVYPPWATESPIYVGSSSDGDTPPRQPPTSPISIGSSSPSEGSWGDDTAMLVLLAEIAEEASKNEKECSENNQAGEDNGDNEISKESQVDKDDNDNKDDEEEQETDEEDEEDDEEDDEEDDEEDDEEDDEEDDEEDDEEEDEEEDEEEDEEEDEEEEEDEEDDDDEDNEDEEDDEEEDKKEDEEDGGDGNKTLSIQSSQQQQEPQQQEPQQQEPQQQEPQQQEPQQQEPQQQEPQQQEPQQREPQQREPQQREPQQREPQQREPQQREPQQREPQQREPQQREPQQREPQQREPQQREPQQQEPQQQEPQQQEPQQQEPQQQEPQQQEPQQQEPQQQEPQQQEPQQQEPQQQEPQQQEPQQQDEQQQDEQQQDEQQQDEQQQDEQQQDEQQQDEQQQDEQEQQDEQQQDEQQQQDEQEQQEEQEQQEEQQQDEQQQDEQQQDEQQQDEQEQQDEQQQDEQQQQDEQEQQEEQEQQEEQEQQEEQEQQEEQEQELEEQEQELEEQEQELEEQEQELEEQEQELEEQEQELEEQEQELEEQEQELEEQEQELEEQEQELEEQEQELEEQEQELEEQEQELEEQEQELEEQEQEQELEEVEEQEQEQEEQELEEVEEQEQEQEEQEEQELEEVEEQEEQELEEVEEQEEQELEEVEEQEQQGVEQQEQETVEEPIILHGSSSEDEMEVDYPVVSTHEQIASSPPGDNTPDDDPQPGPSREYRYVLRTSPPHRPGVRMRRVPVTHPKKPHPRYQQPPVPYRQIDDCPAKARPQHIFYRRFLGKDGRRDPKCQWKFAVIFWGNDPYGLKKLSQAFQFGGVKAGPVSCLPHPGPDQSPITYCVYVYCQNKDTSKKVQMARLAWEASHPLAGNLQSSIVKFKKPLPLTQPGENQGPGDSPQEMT
# HNF4A DNA FP: change in binding of human HNF4 alpha to DNA; P41235; HNF4a-FITC DNA binding, fluorescence polarization, 1 h; activity change, % at 10 µM; actives 0.3% (n = 360,000); in the data active = activity change above about 30%, passing the limit was not always enough;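 also: controls were the assay level and a saturating level of protein; the project sought stronger binding though the title names inhibitors; some compounds called inactive have numbers as strong as hits; positive values seem to mean higher polarization but the record does not say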
# Beta2AR agonist: agonists of human beta-2 adrenergic receptor inducing internalization; actives 0.43% (n = 340,000); Am2.2-beta2AR cells, FAP receptor internalization, flow cytometry; reference of the scale not given here; response, % (test concentration not listed); P07550;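 active = response above a set limit, near 3 SD of response in nonfluorescent compounds, cut at about 42% in these data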;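 also: stock transfer was 100 nL into about 11 µL; a reference agonist was the positive control; negative values mostly stem from fluorescent compounds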
# Active calls of the source: *; i = inactive; ? = inconclusive; nt = no result given; & = joins results of further samples.
# Under each structure: A1 inh	Vif A3G	E coli growth	UCH37 inh	LANA-H2B inh	HNF4A DNA FP	Beta2AR agonist
- CCOC(=O)CSc1ccc(S(=O)(=O)N2CCCCC2)cc1[N+](=O)[O-]
    0.5	19.1%	0.683	4.8	1.1	1.2	5.0
- CC(=O)c1ccc(NC(=O)c2noc3c2CCC3)cc1
    -9.5	-4.8%	0.631	0.8	0.3	-2.5	-5.9
- O=C1CC(c2c[nH]c3ccccc23)C(=O)N1 (stereo not drawn)
    -0.9	-1.9%	0.679	2.5	30.3*	-1.1	-0.8
- Cc1cc(-c2n[nH]c(=S)n2/N=C/c2cccs2)n[nH]1
    0.2	nt	nt	nt	-13.1	-1.4	-6.9
- COc1cc(/C(C)=N/N2CCOCC2)cc(OC)c1OC
    0.5	31.7%	nt	nt	-1.5	3.0	-8.4
- Cc1ccc(CNC(=O)C2CCCN(C(=O)Nc3ccc(F)cc3)C2)cc1 (stereo not drawn)
    0.2	nt	0.669	2.8	-4.1	-0.1	7.3
- CC(C)c1ccc(NC(=O)COC(=O)COc2ccccc2)cc1
    0.8	14.6%	0.715	2.3	-1.9	0.7	-15.1
- CCOC(=O)C1=NNC(C(=O)c2ccc(C)cc2)C1c1ccc(C)cc1 (stereo not drawn)
    0.2	-3.5%	0.654	0.0	-9.8	1.7	0.7
- CCCCOc1ccc(C(=O)N2CCCCCC2)cc1
    -0.2	12.9%	0.721	-0.5	-21.5	4.4	-26.8
- CC1(c2ccc3ccccc3c2)NC(=O)N(CC(=O)N2CCN(c3ccccc3O)CC2)C1=O (stereo not drawn)
    0.1	nt	0.68	3.6	-0.2	5.1	-1.6
- O=C(CCc1nc2ccccc2c(=O)[nH]1)Nc1cccc(S(=O)(=O)N2CCOCC2)c1
    0.3	3.4%	0.719	-1.2	nt	1.4	-7.5
- CCOC(=O)/C(=N/Nc1ccc(C)cc1)S(=O)(=O)c1ccc(Cl)cc1
    -0.3	9.7%	nt	nt	2.7	-0.1	-4.2
- O=S(=O)(N1CCCCC1)n1nnc2ccccc21
    0.7	0.2%	0.702	5.3	-2.3	-0.8	10.5
- CC(=O)C(C)n1cnc2scc(-c3ccc(C)cc3)c2c1=O (stereo not drawn)
    0.4	nt	0.71	2.3	-0.6	7.4	-1.5
- CC1c2cccn2CCN1S(=O)(=O)c1ccccc1 (stereo not drawn)
    -0.9	6.0%	0.704	2.6	nt	1.7	0.9
- O=[N+]([O-])c1ccccc1-c1ccc(/C=N/n2cnnc2)o1
    0.3	9.0%	nt	nt	3.4	4.8	0.2
- CCC1(C)Cc2c(sc3c2c(=O)n(C)c2nnc(SCc4ccc5c(c4)OCO5)n32)CO1 (stereo not drawn)
    0.2	-0.6%	0.759	1.0	4.5	3.3	10.7
- NC1=NC2=C(CCCC2)C2(CCCCC2)S1
    0.7	-7.1%	0.619	0.1	-2.8	-1.1	1.4
- Cc1cccc(NC(=O)c2ccc(Cl)nc2)n1
    0.3	-1.3%	0.724	1.0	1.4	-1.9	-0.7
- CCCOc1ccccc1/C=N/Nc1ccnc(=O)[nH]1
    0.5	-5.7%	nt	nt	0.6	0.0	6.4
- O=C(Nc1cccc(-c2csc(Nc3ccccc3)n2)c1)c1ccccc1
    -0.4	nt	0.726	-1.2	-5.0	5.9	17.5
- COc1ccc(CNC(=O)Nc2ccc(C)cc2C)cc1
    0.4	9.7%	0.72	4.0	-2.4	-1.3	-7.6
- O=C(O)c1cccc(NS(=O)(=O)c2ccc(-c3ccc(S(=O)(=O)Nc4cccc(C(=O)O)c4)cc3)cc2)c1
    -0.2	-2.0%	0.676	3.6	1.3	-3.0	4.5
- CCOC(=O)c1ccc2c(c1)N(Cc1ccccc1C)C(=O)c1ccccc1S2=O (stereo not drawn)
    -0.6	-3.8%&16.0%	0.656	5.5	0.2	0.4	3.0
- CN1CCN(C(=O)c2ccc(N3CCCC3=O)cc2)CC1
    -0.3	3.8%	0.734	1.6	1.3	3.0	-5.4
- NC1=NC(=O)C2(COC(c3ccccc3Cl)OC2)S1 (stereo not drawn)
    0.1	16.5%	0.66	1.6	-0.1	-0.2	-1.4
- CCn1c(SCC(=O)N2CCc3ccccc32)nnc1-c1ccncc1
    -0.3	-3.1%	0.742	1.1	-2.0	-2.6	-6.3
- COC(=O)c1sc(S(=O)(=O)Nc2c(C)nn(C)c2C)c(C(=O)OC)c1C
    nt	-4.3%	0.651	3.5	nt	0.8	-4.0
- COc1ccccc1N1CCN(c2cc(=O)n(Cc3ccc(F)cc3)c(=O)[nH]2)CC1
    0.2	8.6%	0.791	3.2	-2.3	5.3	-7.5
- COc1ccccc1C(=O)Nc1ccc(-c2nnc(SCC(=O)O)n2C)cc1
    -0.4	>100µM*	0.657	-4.2	2.0	0.4	1.4
- COc1ccccc1/C=C/C(=O)Nc1ccc(N2CCOCC2)cc1
    -2.2	-1.8%	0.707	3.1	1.4	-1.8	16.2
- O=C(NCc1cccnc1)Nc1ccc(Br)cc1Cl
    -0.2	-3.4%	0.66	2.3	1.0	0.1	-5.2
- Cc1ccc2cc(C(c3nnnn3CC3CCCO3)N3CCc4ccccc4C3)c(=O)[nH]c2c1 (stereo not drawn)
    -0.3	6.4%	0.643	1.7	-1.9	-7.0	-2.4
- COc1ccc(N2CCN(CCNC(=O)c3c(C)cc(=O)oc3C)CC2)cc1
    nt	4.0%	0.66	18.8	nt	-6.3	-14.3
- O=[N+]([O-])c1cccc(S(=O)(=O)NCC2CC3CCC2C3)c1 (stereo not drawn)
    -1.6	6.5%	0.663	0.6	5.1	3.9	-0.6
- CCc1ccc(-c2cc3c(=O)n(CC(=O)NCCN4CCCCC4C)nc(C)n3n2)cc1 (stereo not drawn)
    -1.2	nt	0.645	-0.7	-3.3	4.0	2.4
- COc1ccc(OC)c(CN2CCN(Cc3cc(=O)oc4cc(O)ccc34)CC2)c1
    0.4	nt	0.707	i	7.7	1.0	-4.9
- COc1ccc(N(CC(=O)N/N=C/c2ccc(OC3CSC3)cc2)S(=O)(=O)c2ccccc2)cc1
    0.1	nt	nt	nt	-0.4	-4.1	4.9
- COc1cccc(CN(C)C(=O)C2CCN(S(=O)(=O)c3ccc(C)cc3)CC2)c1OC
    0.3	-4.9%	0.672	1.1	0.3	-1.4	-4.5
- Cc1sc2ncnc(SCC(=O)N3c4ccccc4Sc4ccc(Cl)cc43)c2c1C
    -0.4	11.8%	0.731	0.2	-4.8	3.2	0.5
- Cc1oc(-c2ccoc2)nc1CN(Cc1ccccc1)CC1CC1
    -0.8	6.0%	nt	nt	-1.4	0.9	-4.2
- CCOC(=O)/C(C)=C1\NC(C)(C)Cc2ccccc21
    nt	nt	nt	3.8	nt	-2.8	5.0
- O=C(c1cc([N+](=O)[O-])ccc1Cl)N1CCN(c2ccccn2)CC1
    0.0	4.2%	0.716	5.2	4.7	3.0	-3.3
- O=C(NC1CCCCC1)[C@@H]1CC=C[C@@H]2CCN(C3CCCCC3)C(=O)[C@@H]21
    0.8	nt	nt	-1.2	2.5	0.8	-3.8
- Cc1ccc(-n2cc(C(=O)c3ccc4ccccc4c3O)cn2)cc1
    -0.5	5.0%	0.762	4.0	-0.7	-1.1	3.7
- Cc1cccc(-n2ncc3c(NCc4cccs4)ncnc32)c1
    -0.4	13.5%	0.683	2.8	2.3	-0.5	-3.2
- O=c1c(Cl)c(N2CCCCC2)cnn1-c1nc2ccccc2[nH]1
    0.3	-5.1%	0.656	4.7	-2.6	6.9	-18.5
- Cc1cc(C(=O)N(C)C2CCCCC2)no1
    -0.1	4.1%	0.664	0.0	0.1	1.8	-1.2
- O=C(Nc1cccc2ccccc12)N(c1ccccc1)c1ccccc1
    nt	-3.0%	nt	nt	nt	-2.6	-1.1
- CCOC(=O)COc1c(OC)cc(Cl)cc1C1Nc2ccccc2C(=O)N1c1cccc(C)c1 (stereo not drawn)
    0.6	9.9%	0.715	-163.6	1.2	-0.6	14.6
- COc1ccc(S(=O)(=O)Nc2cccc(C)c2C)c2cccnc12
    0.8	nt	0.689	-1.2	1.8	0.9	-2.5
- O=C(CN1C(=O)C2C3C=CC(C3)C2C1=O)Nc1cccc2c1CCCC2 (stereo not drawn)
    0.1	?	0.726	8.9	-1.7	-1.4	-3.4
- Cc1cccc(C)c1OCc1nc2ccccc2c(=O)n1/N=C/c1ccc(OCC(=O)O)cc1
    0.5	4.8%	nt	nt	-3.2	-2.6	-2.1
- CCCCNC1=CC(=O)C(NCCCC)=CC1=O
    nt	-1.3%	0.692	5.2	nt	-3.5	-11.9
- O=[N+]([O-])c1ccc(CN2CCC(Cc3ccccc3)CC2)cc1
    -0.8	nt	0.663	2.9	3.2	-1.5	0.5
- Cc1cccc(NC(=O)c2ccc(OCC3CCCO3)cc2)c1C (stereo not drawn)
    -1.1	-3.1%	0.71	5.7	-0.5	-2.3	3.5
- Cc1cc(C)nc(NS(=O)(=O)c2ccc(NC(=O)C(C)C)cc2)n1
    1.2	-0.6%	0.696	4.9	2.3	6.3	-4.2
- COC(=O)c1cccc(NC(=O)CCSc2ccc(Cl)cc2)c1C
    1.3	0.2%	0.699	-1.3	0.1	3.0	-6.1
- O=C(NCC(c1ccc(F)cc1)N1CCOCC1)c1cccnc1Sc1ccccc1 (stereo not drawn)
    0.3	-5.0%	0.672	8.0	-0.9	1.8	-0.9
- C/C(=C/c1ccccc1)C(=O)N1CCN(c2ccccc2)CC1
    -0.8	nt	0.712	5.8	-2.0	-0.2	4.0

# Additional records follow:
# Under each structure: A1 inh	Vif A3G	E coli growth	UCH37 inh	LANA-H2B inh	HNF4A DNA FP	Beta2AR agonist
- CCOc1ccc(C(=O)NNC(=O)C2CC(=O)N(c3ccc(C)cc3)C2)cc1 (stereo not drawn)
    -0.5	-1.7%	0.706	1.3	-5.6	0.8	7.0
- CCCn1cnc2c(SCc3ccccc3Cl)nc(N)nc21
    nt	1.5%	0.643	3.4	nt	-4.5	-16.0
- Cc1ccc(C(=O)Nc2cccnc2)cc1S(=O)(=O)N1CCCCCC1
    -1.1	2.3%	0.699	2.4	-0.2	2.6	13.2
- COCCCN1C(=O)c2ccc(C(=O)OCC(=O)N(CCC#N)c3cc(C)cc(C)c3)cc2C1=O
    1.7	-6.0%	0.694	0.4	0.9	-2.2	0.2
- CCN(CC)c1ccc(NC(=O)CC2Oc3ccccc3NC2=O)c(C)c1 (stereo not drawn)
    0.1	10.0%	0.72	6.3	5.7	2.4	-0.7
- COc1ccc(Cl)cc1C(=O)NCCCn1ccnc1
    0.4	nt	0.635	0.2	11.9	-1.2	7.4
- C=CCn1c(N)c(C(=O)OCC)sc1=S
    0.2	1.2%	0.66	3.8	1.9	-2.5	6.0
- O=C(CNCc1cccc(Cl)c1)N1CCc2ccccc2C1
    -0.1	1.2%	0.659	5.7	-2.6	1.0	-107.8
- CCCCc1ccc(N=N/C(C(=O)Nc2ccc(NC(C)=O)cc2OC)=C(/C)O)cc1
    -0.6	nt	0.689	4.1	47.3*	-0.3	-5.8
- COC(=O)c1cccc(NC(=S)N2CCOCC2)c1
    0.0	-2.2%	0.64	1.0	-2.4	-6.3	-3.5
- Cc1ccc(/C=C/C(=O)OCC(=O)NCc2ccccc2)o1
    nt	0.1%	0.664	6.2	nt	6.4	-2.3
- CCCCn1nc(C(=O)NC2CCCCCC2)c2ccccc2c1=O
    1.9	-16.4%	0.68	3.8	0.6	0.4	7.8
- c1ccc2c(N3CCCC3)nc(-c3ccncc3)nc2c1
    -0.5	19.6%	0.691	-0.6	-0.6	-2.6	-7.0

# Bioassay records deposited in PubChem BioAssay by several laboratories.
